VDR inhibitor = inhibitors of human vitamin D receptor | 400,000 compounds, 0.93% hits | Potency, µM, inactives show max response, negative = inhibition, most hits filed as inhibitors | VDR-SRC2-3 peptide fluorescence polarization, 2 h | P11473 | AID 504847; active = well fitted inhibition curve with a large enough effect; inconclusive = small, poorly fitted or top-dose-only effect, or another doubt; inactive = no such curve, though single readings can be large or run the other way; note: series mostly up to about 120 µM
Target sequence (P11473 whole entry, looked up): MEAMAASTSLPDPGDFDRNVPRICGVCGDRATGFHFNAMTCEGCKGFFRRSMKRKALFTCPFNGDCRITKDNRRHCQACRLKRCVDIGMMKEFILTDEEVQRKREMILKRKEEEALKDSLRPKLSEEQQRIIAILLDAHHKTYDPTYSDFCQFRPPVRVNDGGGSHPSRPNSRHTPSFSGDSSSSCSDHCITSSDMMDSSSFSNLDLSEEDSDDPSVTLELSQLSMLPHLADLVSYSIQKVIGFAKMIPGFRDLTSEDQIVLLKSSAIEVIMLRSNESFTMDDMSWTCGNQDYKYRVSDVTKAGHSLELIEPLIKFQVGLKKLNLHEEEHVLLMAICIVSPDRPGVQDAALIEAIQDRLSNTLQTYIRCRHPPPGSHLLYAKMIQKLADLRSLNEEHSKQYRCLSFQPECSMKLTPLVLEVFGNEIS
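Reagent solutions, kept cold and dark, are dispensed first; compounds are then pinned in at 23 nl, plates briefly spun, and incubated 2 h at ambient temperature. Inhibition of VDR–SRC2-3 peptide binding is read by fluorescence polarization.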
Starred values were filed as active, the others as inactive; u = inconclusive; [ ] = remark or other dose. % is set by controls: 0 for no effect and ±100 for the full control effect; potency is the fitted concentration of half-maximal effect.

| Structure | VDR inhibitor |
| --- | --- |
| Cc1ccc(C(C)(C)C)c(SCC(=O)Nc2nnc(C)s2)c1 | 4% |
| CCOc1cccc(NC(=O)CSc2sc3c(O)cc(=O)[nH]c3c2C#N)c1 | -16% |
| COC(=O)c1ccc(Cl)c(-c2ccc(/C=N/NC(=O)Nc3ccccc3)o2)c1 | 6% |
| Cc1ccc(-c2nn(CC(=O)NCc3ccccc3)c3c2cnc2ccc(F)cc23)cc1C | 11% |
| CC(=O)Nc1ccc(-c2cc(-c3ccc(NC(C)=O)cc3)nc(-c3ccc(NC(C)=O)cc3)n2)cc1 | -19% |
| N/C(=N\OC(=O)Cc1cccs1)c1cccc([N+](=O)[O-])c1 | -5% |
| CN1CCN(S(=O)(=O)c2cc([N+](=O)[O-])ccc2N2CCCCCC2)CC1 | -21% |
| O=C(Nc1ccccc1F)N1CCC(NC(=O)C23CC4CC(CC(C4)C2)C3)CC1 | 23% |
| NS(=O)(=O)c1ccc(NC(=O)CSc2nc3ccccc3nc2N2CCOCC2)cc1 | -4% |
| NS(=O)(=O)c1cccc(NC(=O)c2ccno2)c1 | 1% |
| COC(=O)c1[nH]c2cccc(OC)c2c1NC(=O)CN1CC(C)OC(C)C1 (stereo unspecified) | 3% |
| COc1cc(/C=C/c2ccc3cccc(O)c3n2)ccc1O | -11% |
| CC1CCCCN1C(=O)COC(=O)C1CCN(S(=O)(=O)c2ccc(Cl)c(C(F)(F)F)c2)CC1 (stereo unspecified) | -4% |
| CCCCC(=O)NC(c1cccc([N+](=O)[O-])c1)c1c(OC(C)=O)ccc2ccccc12 (stereo unspecified) | 3% |
| CC(=O)c1c(C)oc2ccc(N(C(C)=O)S(=O)(=O)c3cccc([N+](=O)[O-])c3)cc12 | -12% |
| N#Cc1nc(COc2ccc(Br)cc2)oc1N1CCN(Cc2ccccc2)CC1 | -1% |
| CCCOc1ccc(/C=N/NC(=O)c2ccc(Cn3cc([N+](=O)[O-])cn3)o2)cc1 | 4% |
| CCc1nc(SCc2ccccn2)c2c(=O)n(C)c(=O)n(C)c2n1 | -4% |
| CCCCCOc1ccc(CSC2=NCCN2)cc1[N+](=O)[O-] | -20% |
| CCC(NC(=O)CCc1c(C)c2cc3c(-c4ccccc4)coc3cc2oc1=O)C(=O)O (stereo unspecified) | -13% |
| CCOc1ccc(OCc2ccc(C(=O)N/N=C(\C)c3ccccn3)cc2)cc1 | -15% |
| C/C(=C(\C#N)C(=O)NC1CCCCC1)N(C)C | -17% |
| CC1(C)OC(=O)C(=CNNc2c(Cl)cc(Cl)cc2Cl)C(=O)O1 | u |
| Cc1nc(SCc2ccc(Br)cc2)[nH]c(=O)c1C | -18% |
| CC1=C(C(=O)Nc2cc(Cl)ccc2C)C2(CCCCC2)OC1=O | -9% |

Retrieved one by one from the entries so far:
| Structure | VDR inhibitor |
| --- | --- |
| CCCCC(=O)NC(c1cccc([N+](=O)[O-])c1)c1c(OC(C)=O)ccc2ccccc12 (stereo unspecified) | 3% |
| COC(=O)c1ccc(Cl)c(-c2ccc(/C=N/NC(=O)Nc3ccccc3)o2)c1 | 6% |
| COC(=O)c1[nH]c2cccc(OC)c2c1NC(=O)CN1CC(C)OC(C)C1 (stereo unspecified) | 3% |
| NS(=O)(=O)c1cccc(NC(=O)c2ccno2)c1 | 1% |
| CCOc1cccc(NC(=O)CSc2sc3c(O)cc(=O)[nH]c3c2C#N)c1 | -16% |
| Cc1nc(SCc2ccc(Br)cc2)[nH]c(=O)c1C | -18% |
| CN1CCN(S(=O)(=O)c2cc([N+](=O)[O-])ccc2N2CCCCCC2)CC1 | -21% |

(listing goes on)
| Structure | VDR inhibitor |
| --- | --- |
| Clc1nnc2ccc(-c3ccccc3)nn12 | -14% |
| O=C(OCCN1C(=O)c2cccc3c(N4CCOCC4)ccc(c23)C1=O)c1ccc(Cl)cc1 | -10% |
| CCOC(=O)C1=C(COC(=O)c2cccnc2Cl)NC(=O)NC1C (stereo unspecified) | -9% |
| Cc1ccn2c(=O)c(C(=O)NC3CCCCC3C)c(O)nc2c1 (stereo unspecified) | -7% |
| COC(=O)c1sc2ccccc2c1NC(=O)c1ccc(S(=O)(=O)N2CCCCC2)cc1 | -18% |
| CCCCC(=O)Nc1ccc(S(=O)(=O)Nc2nccc(C)n2)cc1 | -4% |
| O=C(Nc1cc(S(=O)(=O)N2CCCCC2)ccc1O)c1ccccc1NS(=O)(=O)c1ccc(F)c(F)c1 | u |
| Cc1ccc2[nH]c(=O)cc(C(=O)OC(C)C)c2c1 | -5% |
| C=CCN(Cc1nc(-c2cc(OC)ccc2OC)oc1C)C1CCS(=O)(=O)C1 (stereo unspecified) | -7% |
| O=C(O)c1cc(S(=O)(=O)N2CCCCC2)ccc1N1CCCCC1 | -19% |
| O=C(CSc1nc2ccsc2c(=O)n1Cc1ccc(C(=O)O)cc1)NCc1ccco1 | -8% |
| O=C(CCCn1cc([N+](=O)[O-])cn1)Nc1ccc2c(c1)OCO2 | -3% |
| CCCCN(C(=O)c1ccc(-c2ccc([N+](=O)[O-])cc2)o1)c1c(N)n(CC(C)C)c(=O)[nH]c1=O | 32%[activator] |
| O=C(N/N=C/c1cn(-c2ccccc2)nc1-c1cc2ccccc2o1)c1ccncc1 | -6% |
| Cc1[nH]c(=O)c(C#N)cc1-c1ccccc1 | -10% |
| Cc1ccc(S(=O)(=O)Nc2ccccc2C(=O)N2CCCCC2)cc1 | 4% |
| NC(=O)COC(=O)c1c2c(nc3ccccc13)CCCCC2 | -18% |
| Cc1cccc(OCCCn2c(CO)nc3ccccc32)c1 | 7% |
| COc1ccc(Oc2nc(-c3ccccn3)nc3ccccc23)cc1 | 1% |
| COc1ccc([N+](=O)[O-])cc1NC(=O)c1ccc(-n2nc(C)cc2C)cc1 | -1% |
| COC(=O)CCCC(=O)Nc1ccc(Br)cc1 | -3% |
| CC(C)=C1SC(N2CCN(c3ccc(C)cc3)CC2)=NC1=O | 8% |
| Cc1ccc(-c2nn3c(C)nnc3s2)cc1NC(=O)COc1ccc(Cl)cc1 | -16% |
| O=C(O)Cn1c(CCS(=O)(=O)c2ccc(Br)cc2)nc2ccccc21 | -6% |
| CCOC(=O)C1CCN(C(=O)Cc2c(F)cccc2Cl)CC1 | 1% |

Reformatted as labelled records: part of the list above.
Cc1ccc2[nH]c(=O)cc(C(=O)OC(C)C)c2c1
  VDR inhibitor = -5%

C=CCN(Cc1nc(-c2cc(OC)ccc2OC)oc1C)C1CCS(=O)(=O)C1 (stereo unspecified)
  VDR inhibitor = -7%

Later entries
| Structure | VDR inhibitor |
| --- | --- |
| Cc1cc(=O)oc2cc(OCC(=O)Nc3ccc(O)c(C(=O)O)c3)ccc12 | -18% |
| Cc1n[nH]c(=O)[nH]c1=O | 1% |
| O=C(CSc1nccn1Cc1ccc2c(c1)OCO2)Nc1ccccc1F | 13% |
| Cc1cc(C(F)F)n2ncc(C(=O)NCc3ccc(F)cc3)c2n1 | 10% |
| CCN(c1ccccc1)S(=O)(=O)c1nnc(NC(=O)c2ccccc2)s1 | -2% |
| Cc1ccc(C)c(N2CCN(C(=O)c3ccc4[nH]c(C)c(C)c4c3)CC2)c1 | -3% |
| CNc1ccc(-c2nc(-c3ccccn3)no2)cc1[N+](=O)[O-] | 1% |
| COc1ccc(CC(=O)N(Cc2ccccc2)c2ccc(C)cc2)cc1OC | -10% |
| CC(C)NCC(=O)NC12CC3CC(CC(C3)C1)C2 | 3% |
| Cc1cc(N2CCCCC2)nc2ccc(NC(=O)c3ccc(Br)o3)cc12 | 24% |
| Cc1nn(-c2ccccc2)c(N)c1N=Nc1ccc2ccccc2c1 | -1% |
| CC(Oc1ccccc1Cl)C(=O)Nc1ccccc1C(=O)N1CCOCC1 (stereo unspecified) | 4% |
| O=C(C1=NOC(CNc2ncc(C(F)(F)F)cc2Cl)C1)N1CCOCC1 (stereo unspecified) | 20% |
| Cc1nn(CCC#N)c2nc(C(F)(F)F)[nH]c(=O)c12 | 8% |
| COc1cccc(-c2csc(/C(C#N)=C/Nc3cc4oc5ccccc5c4cc3OC)n2)c1 | -20% |
| N#Cc1ccc(COC(=O)c2cc(=O)c3ccccc3o2)cc1 | 11% |
| Cc1nnc(-c2ccc(Oc3ccc(Br)cc3)c([N+](=O)[O-])c2)o1 | 20% |
| CCOC(=O)C1CCN(S(=O)(=O)c2cccc(-c3csc(C)n3)c2)CC1 | -28% |
| CC(C)NC(=O)c1ccc2c(c1)S(=O)(=O)c1ccccc1C2=O | 7% |
| O=C(C1COc2ccccc2O1)N1CCN(S(=O)(=O)c2ccccc2)CC1 (stereo unspecified) | -17% |
| COc1cccc(OC)c1OCCOc1ccc(C(=O)c2ccccc2)cc1 | -2% |
| COc1ccc2c(c1OC)C(=O)N1N=C(c3ccc(-c4ccccc4)cc3)CC21 (stereo unspecified) | -9% |
| O=C(O)CC(NC(=O)C(c1ccccc1)c1ccccc1)c1ccco1 (stereo unspecified) | 8% |
| CC(C)NS(=O)(=O)c1ccc(Br)c(C(=O)OC(C)C(=O)NC2CCCCC2C)c1 (stereo unspecified) | 2% |
| COc1ccc(N2CCN(C(=O)C3CCN(S(=O)(=O)N4CCOCC4)CC3)CC2)cc1 | 3% |
| O=C(NCc1ccccc1)C(c1ccc(F)cc1)N(Cc1ccc2c(c1)OCO2)C(=O)Cn1nnc(-c2cccs2)n1 (stereo unspecified) | 3% |
| CC(=O)Oc1ccc2c(c1)C(=O)c1ccccc1C2=O | u |
| CCc1cccc(NC(=O)CN(C)S(=O)(=O)c2cnc[nH]2)c1 | -9% |
| O=C(NC1CCN(C(=S)NCCc2ccccc2)CC1)C1CC1 | 9% |
| CCn1c(CC(=O)Nc2ccc(Cl)c(Cl)c2)nnc1SCc1ccc(C)cc1 | -8% |
| Oc1c(C(c2cccs2)N2CCC3(CC2)OCCO3)sc2ncnn12 (stereo unspecified) | -5% |
| COc1ccc2c(c1)/C(=N/OC(=O)c1cccs1)CCC2 | -15% |
| COc1ccc(/C=N/NC(=O)CCN2CCN(c3ccccc3)CC2)c(OC)c1OC | 10% |
| CCOc1cc(C(c2c(C)[nH][nH]c2=O)c2c(C)[nH][nH]c2=O)ccc1OS(=O)(=O)c1ccc(C)cc1 | -7% |
| CC(=O)OC(COc1ccccc1)Cn1cnc2ccccc21 (stereo unspecified) | 4% |
| Fc1ccc(OCCCCN2CCOCC2)cc1 | -17% |
| Cc1ccc(NS(=O)(=O)c2cc(C(=O)N3CCc4ccccc4C3)ccc2Cl)cc1 | 21% |
| CC(C(=O)NC1CCCC1)N1CCN(S(=O)(=O)c2ccccc2Cl)CC1 (stereo unspecified) | -25% |
| Cc1ccccc1N=Cc1cccc(O)c1O | 14µM* |
| CCCCOC(=O)c1ccc(NC(=O)c2cc(Cl)c(Cl)cc2C(=O)O)cc1 | -6% |
| O=C(Nc1ccccc1C(=O)NCc1ccco1)c1ccccc1 | -4% |
| Cc1ccc(Cc2nc3ccccc3nc2SCC(=O)N2CCN(c3ccccc3)CC2)cc1 | 8% |
| CC(=O)NC(CC(=O)OCC(=O)N1CCc2ccccc21)c1ccccc1 (stereo unspecified) | 6% |
| COc1ccc(Cl)cc1N1C(=NC(=O)C2CCCO2)SC2CS(=O)(=O)CC21 (stereo unspecified) | 7% |
| CC1(c2nnc(-c3ccc(Cl)cc3)o2)CC(c2cccc(Cl)c2)=NO1 (stereo unspecified) | 4% |
| CCc1ccc(NC(=O)COC(=O)CCc2nc3cc(S(=O)(=O)N(CC)CC)ccc3n2C)cc1 | 14% |
| COc1ccc(N2CCN(C(=O)c3cc(N4C(=O)C5C6CCC(C6)C5C4=O)ccc3Cl)CC2)cc1 (stereo unspecified) | -9% |
| Cn1ccnc1SCC(=O)c1ccc2ccccc2c1 | -14% |
| C[C@H](CO)N1C[C@H](C)[C@@H](CN(C)C(=O)Nc2ccc(C(F)(F)F)cc2)Oc2c(NC(=O)Nc3ccccc3)cccc2C1=O | -5% |
| CCc1nc2ccc(C(=O)N(C)CC(=O)Nc3ccccc3C(F)(F)F)cc2nc1CC | -25% |

Next part:
| Structure | VDR inhibitor |
| --- | --- |
| COc1ccc(C(c2nnnn2Cc2ccccc2)N2CCN(c3nc4ccccc4s3)CC2)cc1 (stereo unspecified) | 13% |
| COc1ccccc1CNC(=O)COC(=O)CNS(=O)(=O)c1ccc(C)cc1 | 7% |
| CC1=C(C(=O)OCCOc2ccccc2)C(c2ccsc2)NC(=O)N1C (stereo unspecified) | 2% |
| Cc1ncc([N+](=O)[O-])n1CC(=O)Nc1ccc2c(c1)OCO2 | -4% |
| CC(=O)C1(C)N(O)C(C)(C)C(c2cccs2)=[N+]1[O-] (stereo unspecified) | 5% |
| OC(COCc1ccc2c(c1)OCO2)CN1CCN(Cc2ccccc2)CC1 (stereo unspecified) | -3% |
| CCC1(CC)Cc2ccccc2C(Nc2c(C)n(C)n(-c3ccccc3)c2=O)=N1 | 10% |
| CC(C)(C)c1ccc(O)c(/C=N\O)c1 | 4% |
| O=C(Nc1nc2ccccc2c(=O)s1)c1ccc(F)cc1Cl | 1% |
| CCOc1cccc(N2C(=O)CC(N3CCN(c4ccc(S(=O)(=O)CC)cc4)CC3)C2=O)c1 (stereo unspecified) | -1% |
| O=C(CCCCn1c(=O)c2ccccc2n(Cc2ccc(F)cc2Cl)c1=O)NCCc1ccc(Cl)cc1 | 3% |
| CCn1c2ccccc2c2cc(/C(C)=N/O)ccc21 | -4% |
| c1ccc(CCN2CN(CCCN3CCOCC3)c3nc4ccccc4n3C2)cc1 | -3% |
| CC(CCc1ccccc1)NC(=O)CCC1CCCC1 (stereo unspecified) | u |
| O=c1cc(CO)occ1OCc1c(F)cccc1Cl | -14% |
| COc1ccc(C(=O)Nc2ccc3ncccc3c2)cc1 | -5% |
| CC1=C/C(=N\S(=O)(=O)c2ccccc2)C(C(C)C)=CC1=O | 40%[activator] |
| CC(=O)NC(Cc1ccccc1)C(=O)N1CCN(C(=O)c2cccs2)CC1 (stereo unspecified) | -8% |
| C=CCCCCCCCCCCCC(O)CC(O)COC(C)=O (stereo unspecified) | 16% |

Source: PubChem (National Center for Advancing Translational Sciences (NCATS))

These rows are one share of the data, so the mix of outcomes need not match the whole.
